Anaer choline gr: inhibitors of anaerobic choline-dependent gram-negative bacterial growth | Gram-negative bacterium anaerobic choline minimal medium, absorbance growth; hits give low values; many inactives read as strong as hits in the columns shown | calls only | 55,000 tested, 0.2% active | AID 1963822;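 active means growth z-score on choline under -2 at 7 or 20 h with little or no fall on glycerol, limits in tiers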;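 further: stock transfer was 300 nL into about 50 µL; the organism is E. coli; final concentration not given here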
Anaer choline gr early: second read-out of Anaer choline gr, no call of its own (marks repeat the call); z-score; measured here: choline growth z-score, timepoint 1;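 score of optical density at 7 h as mean of two plates; lower means less growth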
* marks the source's active call; other numbers are inactive results; i = inactive; & = joins results of further samples. The list is partial. The share of hits here may be higher or lower than overall.

Anaer choline gr,Anaer choline gr early,SMILES
i,-0.43,COc1ccc(NC(=O)C(C)N2C(=O)CCn3nc(C)cc32)cc1 (stereo unspecified)
i,-0.01,CCn1c(=O)c2sccc2n2c(SC)nnc12
i,-0.83,COc1ccc(NC(=O)c2nc(-n3cnnc3)ccc2Br)c(OC)c1
i,0.1,COc1ccc(NC(=O)Nc2nc3cc(C)c(C)cc3s2)cc1
i,-0.07,O=S(=O)(Nc1ccc(Cn2cnc(-c3nc(-c4ccc(Cl)cc4)no3)c2)cc1)c1ccc(F)c(F)c1
i,1.27,CC(=O)c1ncc([C@@H](O)[C@H](O)[C@H](O)CO)[nH]1
i,-0.59,O=S(=O)(c1ccc(Br)cc1)N1CCC2(CC1)Nc1cc(F)ccc1-n1cccc12
i,-0.71,CC(NC(=O)CCC(=O)N1Cc2cccn2-c2ccccc21)c1ccccc1 (stereo unspecified)
i,0.93&0.6,CC(C)(C)c1onc(OCP(=O)(O)O)c1CC(N)C(=O)O (stereo unspecified)
i,1.27,CCc1onc(C)c1C1CCCN1C(=O)NCC(=O)OC (stereo unspecified)
i,-1.13,Cc1cc(CNC(=O)Nc2cccc(F)c2)c(C)n1-c1ccc(Cl)cc1
i,0.16,Cc1cc(C2CCCN2C(=O)c2ccco2)no1 (stereo unspecified)
i,-0.31&-0.01&-0.88,Nc1nc(N)c2nc(-c3ccccc3)c(N)nc2n1
i,0.72,O=c1cc(-c2ccccc2)oc2cc(O)c(O)c(O)c12
i,-0.64,Cc1cc2n(n1)CCCN2C(=O)Nc1cccc(C)c1C
i,0.11,CC(C)n1c(N2CCCN(C(=O)CCC3CCCC3)CC2)cc(=O)n(C(C)C)c1=O
i,-0.74,CC(CCc1ccccc1)NC(=O)C1CCCN(c2ccnc(-c3ccccc3)n2)C1 (stereo unspecified)
i,1.2,Cc1cc(Cl)ccc1OCc1nc(-c2ccc3c(c2)[nH]c(=O)n3C2CCCC2)no1
i,0.54,CCc1ccc(O)c(C(=O)c2cnc3cc(-c4ccccc4)nn3c2)c1
i,-0.4,CCC(=O)Nc1cccc(-c2noc(C3CCCN(C(=O)c4ccccc4F)C3)n2)c1 (stereo unspecified)
i,-0.31,CCC(C)(CN(C)C)OC(=O)c1ccccc1 (stereo unspecified)
i,0.49,CCOC(=O)c1cnn2c(-c3ccc(C)c(C)c3)ccnc12
i,0.64,O=C(c1cc(-c2ccccc2)n[nH]1)N1CCN(S(=O)(=O)c2ccc(F)cc2)CC1
i,0.86,CCOc1ccc(-c2noc(-c3scc(-c4cccc(C)c4)c3-n3cccc3)n2)cc1OC
i,-1.57,Cc1cc(N2CCC(C)CC2)n2ncc(-c3ccc(F)cc3)c2n1
i,-0.4,CCc1ccc2occ(CC(=O)Nc3ccc(S(N)(=O)=O)cc3)c2c1
i,-0.95&0.39,CN(C)S(=O)(=O)c1ccc2c(c1)/C(=C/c1cc3c([nH]1)CCCC3)C(=O)N2
i,0.06,CC(N)=O
i,1.85,COC(=O)c1nc2ccccc2nc1NCc1cc(OC)ccc1OC
i,2.29,Cc1ccc2c(c1)OC=CC(C(=O)Nc1ccc(C)c(C)c1)=C2
i,0.15,CCn1c(=O)c(SCC(=O)NCCc2cccc(OC)c2)nc2ccccc21
i,-0.11,Cc1cc(C)n2nc(CN(C(=O)C3CCCCC3)c3cccc(Cl)c3)nc2n1
i,0.83,Cc1ccc2nc(COc3cccc(NC(=O)Nc4ccccc4Cl)c3)cc(=O)n2c1
i,0.35,Cc1ccc(-c2ccc(N3CCCC(C(=O)NCCN(C)C4CCCCC4)C3)nn2)cc1 (stereo unspecified)
i,0.33,CCCC(=O)N1c2ccccc2NC2=C(C(=O)CCC2)C1c1ccc(C)cc1 (stereo unspecified)
i,-2.29,CC(C)n1c(CN2CCCCC2)nc2cc(NC(=O)C3CCCCC3)ccc21
i,-0.73,CCOC(=O)Cc1c(C)nc2c(C(=O)Nc3ccc(Cl)cc3)c[nH]n2c1=O
i,-1.36,CCOc1ccc(-c2noc(-c3cnn4c(C)c(Cc5ccccc5C)c(C)nc34)n2)cc1OC
i,1.02,O=S1(=O)CCC(S(=O)(=O)Nc2ccccc2)C1 (stereo unspecified)
i,0.21,CCNC(=O)c1nc(-c2ccc(S(=O)(=O)N(C)C)cc2)no1

Random excerpt: four entries already listed
Anaer choline gr,Anaer choline gr early,SMILES
i,-0.74,CC(CCc1ccccc1)NC(=O)C1CCCN(c2ccnc(-c3ccccc3)n2)C1 (stereo unspecified)
i,1.2,Cc1cc(Cl)ccc1OCc1nc(-c2ccc3c(c2)[nH]c(=O)n3C2CCCC2)no1
i,0.83,Cc1ccc2nc(COc3cccc(NC(=O)Nc4ccccc4Cl)c3)cc(=O)n2c1
i,0.86,CCOc1ccc(-c2noc(-c3scc(-c4cccc(C)c4)c3-n3cccc3)n2)cc1OC

The listing continues:
Anaer choline gr,Anaer choline gr early,SMILES
i,-1.54,O=C(NCc1ccccn1)C1CCN(S(=O)(=O)c2cc(C(=O)N3CCCC3)cs2)CC1
i,0.61,Cc1cc(Sc2ccc(NC(=O)Nc3ccc(Br)c(C)c3)cc2)n2ncnc2n1
i,0.61,CCc1cc(Sc2ccccc2N)n2nc(C)nc2n1
i,0.22&0.46,COc1cc(CNC(=O)CCCC/C=C/C(C)C)ccc1O
i,0.06,O=C(CCSCc1cnn(-c2ccccc2)c1-n1cccc1)N1CCN(c2ccccc2)CC1
i,0.85,O=C(c1c[nH]c2ccccc2c1=O)N1CCSCC1
i,-0.73,CCCCNC(=O)CCNC(=O)N1CCSc2nc(C)cc(C)c21
i,-1.07,Cc1nc(N2CCCC2)nc2oc(-c3ccccc3)nc12
i,-1.26,O=C(NCCCN1CCCC1=O)C1=Cc2ccccc2OC1
i,0.88,O=C(NCc1cccnc1)c1cnn2c3c(cnc12)CCCC3
i,0.7,Cc1cc2c(cc(C(=O)N3CCC(C(=O)NCc4ccccc4)CC3)n2Cc2c(F)cccc2Cl)o1
i,0.47,CN(Cc1ccc(Cl)cc1)Cc1cc(=O)n2nc(-c3ccccc3)sc2n1
i,-1.09,Cn1nc(C(=O)NCCN2CCOCC2)c2c1-c1ccsc1CC2
i,-0.24,COc1ccc(-c2noc(C3CCCN(S(=O)(=O)c4ccc(Br)cc4)C3)n2)c(OC)c1 (stereo unspecified)
i,-0.34,CCOCCCNC(=O)N(C)Cc1nc2cc(C(=O)N3CCCC3)ccc2n1C
i,-1.36,O=S(=O)(NCC(c1cccnc1)S(=O)(=O)c1ccccc1)c1ccccc1 (stereo unspecified)
i,0.42,O=C(NC1CCCC1)C1CCN(c2ccc(-c3cccc(F)c3)nn2)CC1
i,-0.94,Cc1ccc2nsnc2c1NC(=O)Cn1c(-c2cncs2)nc2ccccc21
i,1.03,c1ccc(-c2noc(-c3cccnc3N3CCOCC3)n2)cc1
i,-1.71,COc1ccc(C)cc1NC(=O)CN1N=NC2C(=O)N(c3ccc(Br)cc3)C(=O)C21 (stereo unspecified)
i,-0.04,O=C(NCCc1ccccc1)N1CCC(N2CCN(Cc3ccccc3)C(=O)C2=O)CC1
i,-0.22,c1ccc(-c2nc3nc4c(c(N5CCN(C6CCCCC6)CC5)n3n2)CCCC4)cc1
i,-0.93,Cc1nn(CCCC(=O)N2CCc3ccccc3C2)c(=O)c2c1sc1ccccc12
i,-1.38,O=C(c1ccccc1)N1CCN(CCc2ccncc2)CC1
i,-0.61,COc1cc(OC)c(NC(=O)CN2C(=O)CCn3nc(-c4cccn4C)cc32)cc1Cl
i,-2.3,CCNc1nc(C(N)=O)c(NC(=O)c2cc(-c3ccccc3)nc3ccccc23)s1
i,-0.91,CCn1c(=O)c(-c2noc(CCC(=O)Nc3cc(Cl)ccc3OC)n2)nn(-c2ccccc2)c1=O
i,-1.8,O=C(NCC(c1cccnc1)c1c[nH]c2ccccc12)Nc1cccc(F)c1 (stereo unspecified)
i,0.31,Cc1cc(N2CCN(Cc3ccccc3)CC2)n2nc(C(F)(F)F)c(-c3ccc(F)cc3)c2n1
i,0.31,N[C@@H](Cn1ccc(=O)n(Cc2ccccc2C(=O)O)c1=O)C(=O)O
i,-0.38,O=C(Nc1onc2c1CCCC2)c1ccccc1
i,0.6,Cn1c(CN(c2ccc(F)cc2)S(C)(=O)=O)nnc1SCC(=O)Nc1ccc(F)c(F)c1
i,0.93,Cc1nc(CN2C(=O)COc3cc(S(=O)(=O)N4CCc5ccccc5C4)c(Cl)cc32)no1
i,-0.07&0.53,CCCCC[C@H](O)/C=C/[C@H]1C(=O)C=C[C@@H]1C/C=C\CCCC(=O)O
i,2.19,CCc1nc(NCc2ccc(C)cc2)c2onc(-c3ccc(C)cc3)c2n1
i,-0.94,CCc1ccc(-n2[nH]c3ncccc3c2=O)cc1
i,0.54,CC(C)c1ccc(CNS(=O)(=O)c2cc(-c3nc(C(C)(C)C)cs3)cs2)cc1
i,-2.03,O=C(Nc1ccc(F)cc1)C1=CCN(Cc2ccc(F)cc2)CC1
i,-1.97,CC(C)c1ccc(S(=O)(=O)c2cnc(N3CCC(C(N)=O)(N4CCCCC4)CC3)nc2N)cc1
i,-0.23,Cc1ccc(CCN2CC(C(=O)NCCCN3CCC(Cc4ccccc4)CC3)CC2=O)cc1 (stereo unspecified)
i,-1.08,COc1ccc(-n2c3c(cc(C(=O)N4CCC(C)CC4)c2=O)C(=O)CC(C)(C)C3)cc1
i,-1.31,O=C(CSCc1cc(=O)n2[nH]c(-c3ccccc3)nc2n1)Nc1ccc(F)cc1
i,0.78,COC(=O)c1ccccc1NC(=O)c1ccc(=O)n(Cc2c(F)cccc2Cl)c1
i,0.02&-0.07&0.73,CC(=O)Oc1ccccc1C(=O)O
i,0.5,CCN(CC)S(=O)(=O)c1ccc(NC(=O)N2CCCC(C(=O)NCCC(C)C)C2)s1 (stereo unspecified)
i,0.81,O=C(Nc1ccc2c(c1)nc1n2CCN(Cc2ccccc2)C1)c1ccc(F)cc1
i,-0.73,CCNC(=O)CCc1c(C)n(C)c2cc(-c3ccccc3C)nn2c1=O
i,1.27,COc1cc(CNC(C)(C)CO)ccc1OCc1ccc2c(c1)n(C)c(=O)n2C
i,-0.17,CC(C)NC(=O)CN1CCN(c2cc(C(=O)O)c3cc(NC(=O)C4CCC4)ccc3n2)CC1
i,-0.57,Cc1oc(-c2ccno2)cc1S(=O)(=O)NC1CC1
i,0.08,CN(Cc1ccccc1)C(=O)CN1C(=O)COc2ccc(C(=O)N3CCCC3)cc21
i,0.61,CNC(=O)c1c(NC(=O)c2ccc3c(c2)OCCO3)sc2c1CCC(C)C2 (stereo unspecified)
i,0.46,COc1ccc(Oc2cc3c(cc2NC(=O)C(C)(C)C)n(C)c(=O)c(=O)n3C)cc1
i,0.73,COc1nc2c(C)cccc2cc1-c1noc(C)n1
i,0.44,CN(C(=O)c1cc2c(=O)oc3ccccc3c2n1C)c1ccccc1F
i,0.7,CCc1ccccc1NC(=O)NCCc1csc(C)c1C
i,0.24,O=C(CSc1nc(=O)[nH]c2c1CCC2)Nc1nc2ccccc2s1
i,-0.1,CCCCN1CC(c2nc3ccccc3n2CC(=O)N2CCOCC2)CC1=O (stereo unspecified)
i,0.12,CC(=O)N(C(C)=O)c1ncnc2sc3c(c12)CCCC3
i,-0.08,O=C(NCCn1c(CCc2ccccc2)nc2ccccc21)Nc1cccc(Br)c1

In a second layout: entries from further up.
structure: CC(C)(C)c1onc(OCP(=O)(O)O)c1CC(N)C(=O)O (stereo unspecified)
- Anaer choline gr: i
- Anaer choline gr early: 0.93&0.6

structure: CCc1onc(C)c1C1CCCN1C(=O)NCC(=O)OC (stereo unspecified)
- Anaer choline gr: i
- Anaer choline gr early: 1.27

structure: Cc1cc(CNC(=O)Nc2cccc(F)c2)c(C)n1-c1ccc(Cl)cc1
- Anaer choline gr: i
- Anaer choline gr early: -1.13

structure: Cc1cc(C2CCCN2C(=O)c2ccco2)no1 (stereo unspecified)
- Anaer choline gr: i
- Anaer choline gr early: 0.16

Going on with the list.
Anaer choline gr,Anaer choline gr early,SMILES
i,0.79,O=C(NCc1nc2cccnc2n1Cc1ccccc1)c1cccc(Cl)c1
i,0.09,Cc1cccc(C(=O)N2CCCN(Cc3noc(-c4ccccc4)n3)CC2)c1
i,-0.54,O=c1n(CCc2ccccc2)nc2c(S(=O)(=O)N3CCCC3)cccn12
i,-0.44,O=C(O)c1cnc2ccccc2c1N1CCOCC1
i,0.85,Cc1ccc(S(=O)(=O)N2CCN(c3nc4cc(Br)ccc4n4cccc34)CC2)cc1C
i,0.27,O=C(Nc1ccc(F)cc1)c1nnc(C2CCN(C(=O)Nc3ccc(F)cc3)CC2)s1
i,0.16,CCn1cc(CN2CCC(C(=O)N3CCCCC3)CC2)c2cc(OC)ccc21
i,-0.42,COc1cccc(-c2nn3c(CSc4ccccc4)nnc3s2)c1
i,1.06,Cc1cc2c(cc1C)NC(=O)CC(c1ccccc1)=N2
i,1.69,Cc1ccc(-n2ccnc2SCc2nc(-c3cccc(Br)c3)no2)cc1
i,-1.1,COc1cn(CC(=O)NCC2CCCO2)c(CN2CCCCC2)cc1=O (stereo unspecified)
i,-0.5,CCN(CC)S(=O)(=O)c1ccc2c(c1)N(CC(=O)Nc1ccc(C)c(Cl)c1)C(=O)CCS2
i,0.57,Cn1c(=O)[nH]c(=O)c2c(-c3ccccc3)ccnc21
i,0.26,O=C(Cn1ccc2c(SCc3ccc(F)cc3)nccc21)N1CCN(c2ccccn2)CC1
i,0.64,COc1ccc(CNC(=O)c2ccc3cnn(Cc4ccc(Cl)cc4)c3c2)c(OC)c1
i,-1.11,Cc1ccc(NC(=O)Cn2nc(C)c(S(=O)(=O)N3CCC(C(=O)NC4CCCC4)CC3)c2C)cc1
i,-0.59,Cc1ccc(C)c(N2CCN(C(=O)CN3C(=O)CCn4nc(-c5cn(C)c6ccccc56)cc43)CC2)c1
i,-0.28,Cn1cc(S(=O)(=O)c2ccccc2)c(=O)c2cc(F)c(N3CCC(Cc4ccccc4)CC3)cc21

Assay outcomes deposited in PubChem by ICCB-Longwood Screening Facility, Harvard Medical School.
